# From PubChem
# Rango complex inh: inhibitors of Rango-importin beta complex formation; Potency, µM (top dose mostly 92.2 µM), for inactives: at the highest dose inhibition of complex formation; 0.031% of 340,000 active; Rango CFP/YFP FRET sensor + importin beta, 45 min; Q14974; active = rising FRET ratio curve, often small or poorly fitted; inconclusive = mostly compound fluorescence or quenching in the first reads; inactive = flat curves in all reads;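 also: potency is read from the fitted curve at half-maximal effect; 0% = DMSO wells and 100% = buffer wells lacking importin beta; nearly all actives have a fitted effect of over 15% in size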
# Target sequence (Q14974 whole entry, looked up): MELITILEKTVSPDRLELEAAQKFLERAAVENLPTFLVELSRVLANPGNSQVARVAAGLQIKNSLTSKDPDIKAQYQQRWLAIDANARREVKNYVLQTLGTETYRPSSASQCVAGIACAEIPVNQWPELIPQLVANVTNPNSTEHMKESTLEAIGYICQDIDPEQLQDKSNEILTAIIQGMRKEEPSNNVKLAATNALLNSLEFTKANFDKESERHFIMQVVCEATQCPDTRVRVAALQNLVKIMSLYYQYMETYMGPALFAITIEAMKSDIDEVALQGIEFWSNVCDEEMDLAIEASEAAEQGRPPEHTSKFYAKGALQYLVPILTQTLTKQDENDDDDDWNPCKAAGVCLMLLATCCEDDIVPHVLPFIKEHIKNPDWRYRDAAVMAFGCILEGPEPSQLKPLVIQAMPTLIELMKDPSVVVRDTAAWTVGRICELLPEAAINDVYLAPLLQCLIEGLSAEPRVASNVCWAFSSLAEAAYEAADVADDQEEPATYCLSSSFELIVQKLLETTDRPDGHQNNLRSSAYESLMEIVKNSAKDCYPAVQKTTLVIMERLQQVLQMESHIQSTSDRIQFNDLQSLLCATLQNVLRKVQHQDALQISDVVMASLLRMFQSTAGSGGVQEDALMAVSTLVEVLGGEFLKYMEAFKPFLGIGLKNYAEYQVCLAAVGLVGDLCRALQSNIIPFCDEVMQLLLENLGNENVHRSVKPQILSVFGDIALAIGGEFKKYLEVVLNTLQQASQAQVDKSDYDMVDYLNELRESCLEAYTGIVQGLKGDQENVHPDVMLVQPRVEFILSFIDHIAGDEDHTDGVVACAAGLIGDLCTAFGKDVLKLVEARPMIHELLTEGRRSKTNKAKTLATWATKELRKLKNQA
#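 Inhibition scored from the CFP 486 nm/YFP 530 nm FRET ratio 45 min after adding 0.125 microM importin beta to 50 nM Rango biosensor preincubated 5 min with compound (room temperature, PBS with DTT, Tween-20, BSA). No-importin wells as positive control.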
# miR-21 reporter: raises the signal of a miR-21 reporter; Potency, µM (titrated, usually from 38.3 µM), without a hit: at the highest dose reporter change, positive = more light; 340,000 tested, under 10 active; HeLa miR-21 FLuc reporter, luciferase, 48 h; AID 2288; active = well fitted rising curve with a large enough effect; inconclusive = small, poorly fitted or top-dose-only effect; inactive = no such curve, though single readings can be large or run the other way;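 also: % of control where 0% means no effect; miR-21 action dims this reporter so a rising signal means less miR-21 action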
#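 HeLa cells stably expressing CMV-driven firefly luciferase with a downstream miR-21 binding sequence, endogenously expressing miR-21, were treated with titrations (up to about 40uM final) for 48 hours at 37 degree Celsius. Luciferase luminescence was read after lysis.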
# GLA inh pH 4.5: alpha-galactosidase A (human) inhibition, pH 4.5; P06280; purified enzyme, 4-MU-alpha-Gal fluorescence, pH 4.5; activity change, negative = inhibition, % at 105 µM; 230,000 tested, under 10 active; AID 1467; inconclusive = small, poorly fitted or top-dose-only inhibition, or a rising curve; inactive = flat fitted curve, though single readings scatter; no compound was filed as active;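 also: 0% = full activity with enzyme and -100% = basal without enzyme; dose as in the result columns while the protocol names 77 µM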
# Rango release inh: prevents RanGTP from dissociating the Rango-importin beta complex; Biochemical FRET Rango-importin beta, RanGTP-induced dissociation; Potency, µM (highest dose often 46.1 µM), inactives show top-dose activity change, negative = inhibition; 0.071% of 340,000 active; AID 540253; active means falling FRET ratio curve, often poorly fitted, with flat reads before Ran was added; inconclusive means other falling curves, or compound fluorescence or quenching; inactive means flat or rising ratio curve;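 also: potency is read from the fitted curve at half-maximal effect; % of control where 0% means no effect; nearly all actives have a fitted effect of over 45% in size; -100% = wells without RanGTP and RCC1; the record marks most hits as doubtful in a second field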
#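 Quantitative HTS using a FRET biosensor: 0.1 uM Rango, 0.25 uM importin beta, 0.6 uM Ran, 2 mM GTP, 0.2 uM RCC1 final, PBS with DTT, Tween-20 and BSA. Post-read taken 45 min after Ran addition.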
# * = called active by the depositor; ? = inconclusive; . = not tested or not shown; & = joins results of further samples; [ ] = another dose, or the depositor's remark. The list is partial; the hit share may differ from the screen's.
Rango complex inh	miR-21 reporter	GLA inh pH 4.5	Rango release inh	Molecule
-0.8%	1%	-1	-13%	Cc1cc(Oc2nc3c(C)cccn3c(=O)c2/C=C(\C#N)S(=O)(=O)c2ccccc2)ccc1Cl
-0.5%	-3%	.	-8%	CCNc1nc(NCC)nc(N/N=C/c2ccccc2)n1
-0.4%	-5%	-1	0%	Cc1c(-n2c(SCC(=O)N(C)C3CCS(=O)(=O)C3)nc3ccccc3c2=O)c(=O)n(-c2ccccc2)n1C (stereo not drawn)
-2.5%	-17%	-5	-28%	Nc1ccccc1Nc1cc(-c2ccccc2)[nH]n1
-0.3%	-4%	1	-13%	C=CCN(c1ccc(C(=O)Nc2cccc(C)c2)cc1)S(C)(=O)=O
0.0%	0%	2	-3%	CCCCNCc1cc(Br)c(OCC(=O)N2CCOCC2)c(OC)c1
.	-2%	-29	.	Fc1ccc(/C=C2\CCCC3=C2NC(=S)NC3c2ccc(F)cc2)cc1 (stereo not drawn)
-0.4%	-5%	-2	23%	Cc1ccc2nc(Nc3nc(CSc4nc5ccccc5s4)cc(=O)[nH]3)nc(C)c2c1
?	0%	.	?	CCN1CCN(Cc2c(O)ccc3c(C)cc(=O)oc23)CC1
-1.9%	4%	5	22%	N=c1n(CCO)c2ccccc2n1Cc1ccc(Cl)cc1
2.8%	.	.	-7%	CC(OC(=O)CN1C(=O)c2ccccc2C1=O)C(=O)NC1CCCCC1C (stereo not drawn)
-1.4%	5%	.	10%	CC1CCCCN1C(=O)c1ccc(CS(=O)(=O)Cc2ccccc2)cc1 (stereo not drawn)

Rango complex inh	miR-21 reporter	GLA inh pH 4.5	Rango release inh	Molecule
-2.7%	-10%	-19	9%	CC(=O)c1ccc(NC(=O)C(C)OC(=O)c2ccc(NS(=O)(=O)c3ccc(F)c(F)c3)cc2)cc1 (stereo not drawn)
-0.5%	0%	.	?	O=C(NCc1ccc(F)cc1)C1CC(=O)N(C2CCCCCCC2)C1 (stereo not drawn)
-1.9%	-30%	3	2%	Cc1csc(NC(=O)C2CCCC2)n1
12%	.	.	34%	CC12CCC(=O)C=C1C(O)CC1C2CCC2(C)C1CCC2(O)C(=O)CO (stereo not drawn)
-0.7%	0%	0	7%	CC12CCC(C(=O)Nc3cc(Cl)ccc3Cl)(C/C1=N\O)C2(C)C (stereo not drawn)
-2.1%	.	.	3%	CC(Oc1ccccc1)C(=O)OCC(=O)Nc1sccc1C(N)=O (stereo not drawn)
2.2%	-7%	3	1%	O=C(Cc1coc2ccc3ccccc3c12)NCc1cccs1
-1.2%	-2%	0	7%	O=C(O)/C=C/c1ccccc1Oc1ccc(Cl)cc1Cl
-3.3%	1%	.	32%	Cc1noc(C)c1S(=O)(=O)N(CC(=O)NC(C)c1ccccc1)c1ccc(C(C)C)cc1 (stereo not drawn)
-2.2%	-8%	-8	1%	COc1cccc(/C=N/n2cnc3cc(C)c(C)cc32)c1OC
?	.	.	-17%	C[C@H](O)[C@@H]1C(=O)N2CCc3ccc(-c4cccc(F)c4)cc3[C@@H]2C[C@@H]1N(C)C(=O)Nc1ccccc1
3.6%	-1%	2	-3%	O=C(C1=C[C@@H](c2ccc(C(F)(F)F)cc2)C[C@@H](OCc2ccc(CO)cc2)O1)N1CCOCC1

Rango complex inh	miR-21 reporter	GLA inh pH 4.5	Rango release inh	Molecule
-4.3%	.	.	0%	Cc1ccc(S(=O)(=O)N2CCN(C(=O)c3cc(S(=O)(=O)N(C)C)ccc3N3CCCC3)CC2)c(C)c1
2.2%	-5%	-2	1%	CCOc1ccccc1C1C2C(=O)N(c3ccccc3)C(=O)C2ON1c1ccccc1 (stereo not drawn)
4.6%	-10%	1[21.1 µM]	-3%	COC(=O)c1cccnc1-n1c(=O)c2cccnc2n(Cc2cccc(C(F)(F)F)c2)c1=O
4.3%	2%	8	16%	COC(=O)c1ccc2c(=O)n(CC3CCCO3)c(SCC(=O)Nc3ccc(OC)cc3OC)nc2c1 (stereo not drawn)
3.5%	-28%	0	5%	c1ccc(Cc2nnc3sc(-c4cccs4)nn23)cc1
-4.2%	12%&9%	-5	1%	CCOC(=O)c1cn(CC(=O)Nc2cccc(Cl)c2C)nn1
-3.8%	.	.	5%	CC12CCCC(C(C#N)C(N)=O)(C1)NC(=O)C2C#N (stereo not drawn)
-4.5%	-3%	4	14%	COc1ccc(C(=O)Nc2ccc(S(=O)(=O)N3CCCC3)cc2)c(OC)c1
?	0%	-5	?	CC1=NN2C(=N)/C(=C\c3ccc(SCc4ccccc4)o3)C(=O)N=C2S1
-0.2%	-1%	-3	-8%	O=C1CC(N2CCC(O)(c3ccc(Cl)cc3)CC2)C(=O)N1 (stereo not drawn)
2.3%	?	-23	-9%	COc1ccc(OC)c(-c2cc(C3CCN(c4cc(Cl)nc(N)n4)CC3)[nH]n2)c1
-5.7%	.	.	-13%	NC(=O)c1ccsc1NC(=O)COC(=O)CCCOc1ccccc1

Rango complex inh	miR-21 reporter	GLA inh pH 4.5	Rango release inh	Molecule
1.6%	.	.	3%	O=C(CCNS(=O)(=O)c1ccccc1)NNC(=O)C1COc2ccccc2O1 (stereo not drawn)
-1.5%	0%	.	-7%	COC(=O)Cn1c(=NC(=O)CCS(=O)(=O)c2ccccc2)sc2c(OC)ccc(OC)c21
-0.2%	-5%	5	4%	CCc1nnc(NC(=O)C2CC(=O)N(Cc3ccco3)C2)s1 (stereo not drawn)
-3.3%	-8%	4	-8%	O=C(CSc1nnc(-c2ccccc2F)n1CCc1ccccc1)Nc1ccc2[nH]c(=O)[nH]c2c1
2.0%	-55%	-7	9%	CCSc1nc2ccccc2n1CCOc1ccccc1
1.4%	2%	5	11%	Cc1ccoc1C(=O)NCCCNC(=O)c1occc1C
-4.8%	.	.	-6%	COc1cccc(CC(=O)NN2C(=O)NC3(CCCCC3)C2=O)c1
1.7%	-1%	4	-1%	O=C(CCCSc1nc2sc3c(c2c(=O)[nH]1)CCC3)NCCCO
-2.7%	-2%	-9	-12%	Nc1c(-c2ccccc2)c(CN2CCOCC2)nn1-c1cccc([N+](=O)[O-])c1
0.6%	-1%	.	11%	CCOc1ccc(S(=O)(=O)NCc2ccncc2)cc1NC(=O)c1ccccc1F
-0.2%	.	.	15%	O=c1cc(-c2ccccc2)cc(-c2ccccc2)n1CCCO
0.5%	-2%	4	-5%	CC(Cc1ccccn1)NC(=O)CCc1nnc(C2CCCCC2)o1 (stereo not drawn)

Rango complex inh	miR-21 reporter	GLA inh pH 4.5	Rango release inh	Molecule
2.5%	-8%	-4	1%	COC(=O)C12CC3CC(C1)CC(n1cnc(Cl)n1)(C3)C2
-1.7%	10%	-5	-1%	CCN(CC)S(=O)(=O)c1cccc(-c2nnc(SCC(=O)NC3CCCCCC3)n2N)c1
0.7%	5%	-16	-2%	O=C(CSc1nnc(Cc2cccs2)n1Cc1ccco1)Nc1cccc(Cl)c1
0.5%	24%	.	6%	Cc1c(C)c2ccc(OCC(=O)Nc3ccccn3)c(C)c2oc1=O
-0.5%	-1%	-4	1%	COC(=O)c1sc(NC(=O)COc2cccc3ccccc23)nc1C
3.4%	-7%	.	7%	Cc1c(O)nc(SCC(=O)Nc2cccc(C(F)(F)F)c2)n(-c2ccccc2)c1=O
-0.3%	.	.	-7%	COc1ccc(C(CNC(=O)C(C)(C)Oc2ccc(Cl)cc2)N2CCCC2)cc1 (stereo not drawn)
2.0%	1%	2	-16%	O=C(O)CCc1nn2c3ccccc3n(CCN3CCCCC3)c2nc1=O
7.3%	-1%	-9	-9%	COc1ccc(C(=O)/C=C/c2ccc(C)cc2)c(OC(=O)c2ccc([N+](=O)[O-])cc2)c1
0.0%	-6%	-1	7%	CCc1ccc(NS(=O)(=O)c2ccc3[nH]cc(C(=O)N4CCCCC4)c(=O)c3c2)cc1
-0.5%	-1%	10	0%	COC(=O)c1ccc(NC(=O)COC(=O)c2nc3nccc(C)n3n2)cc1
-1.4%	-5%	0	1%	CC1Cc2ccccc2N1S(=O)(=O)c1cccc(C(=O)OCC(=O)NCc2ccco2)c1 (stereo not drawn)

Rango complex inh	miR-21 reporter	GLA inh pH 4.5	Rango release inh	Molecule
0.5%	-2%	1	13%	COc1ccc(C/C(N)=N/O)cc1
-2.7%	7%	-3	-11%	COc1ccc(N(CC(=O)NCc2ccc3c(c2)OCO3)C(=O)CCC(=O)Nc2ccccn2)cc1
4.1%	.	.	-14%	Cn1cc(C(CO)Cc2ccccc2)c2ccccc21 (stereo not drawn)
-3.4%	0%	.	13%	CC(OC(=O)Cn1[nH]c(=O)c2ccccc2c1=O)C(=O)c1ccccc1 (stereo not drawn)
1.4%	-7%	-5	-13%	Cc1cc(F)ccc1S(=O)(=O)Nc1ccccc1C(=O)Nc1ncn[nH]1
-1.8%	10%	-2	-3%	Cc1ccccc1CN1C2=NCCN2c2ccccc21
-1.3%	-2%	.	2%	CC(C)C[C@H](NC(=O)[C@H]1N2C(=O)c3ccccc3C2SC1(C)C)C(=O)N[C@@H](Cc1ccccc1)C(=O)O (stereo partly drawn)
-1.7%	5%	-4	9%	OCCNc1nc(-c2cccnc2)nc2ccccc12
-0.6%	-18%	-6	-5%	O=C(CSc1nnc(-c2ccncc2)o1)NC1C2CC3CC(C2)CC1C3 (stereo not drawn)
1.0%	2%	.	3%	CCOCCn1c(CN2CCCCC2C)nc2c1c(=O)n(C)c(=O)n2C (stereo not drawn)
-2.5%	-6%	.	-2%	CCc1ccc(OCCOC(=O)Nc2ccccc2)cc1
0.4%	-14%	3	-22%	CCCCCCCC(=O)N/N=C(\C)c1cccnc1

# Part of the list above in order of heavy-atom count, highest first:
Rango complex inh	miR-21 reporter	GLA inh pH 4.5	Rango release inh	Molecule
-1.7%	5%	-4	9%	OCCNc1nc(-c2cccnc2)nc2ccccc12
0.4%	-14%	3	-22%	CCCCCCCC(=O)N/N=C(\C)c1cccnc1
0.5%	-2%	1	13%	COc1ccc(C/C(N)=N/O)cc1

# Reprinted at random: 7 compounds from above, in no set order.
Rango complex inh	miR-21 reporter	GLA inh pH 4.5	Rango release inh	Molecule
4.1%	.	.	-14%	Cn1cc(C(CO)Cc2ccccc2)c2ccccc21 (stereo not drawn)
-1.8%	10%	-2	-3%	Cc1ccccc1CN1C2=NCCN2c2ccccc21
-0.6%	-18%	-6	-5%	O=C(CSc1nnc(-c2ccncc2)o1)NC1C2CC3CC(C2)CC1C3 (stereo not drawn)
0.4%	-14%	3	-22%	CCCCCCCC(=O)N/N=C(\C)c1cccnc1
1.4%	-7%	-5	-13%	Cc1cc(F)ccc1S(=O)(=O)Nc1ccccc1C(=O)Nc1ncn[nH]1
1.0%	2%	.	3%	CCOCCn1c(CN2CCCCC2C)nc2c1c(=O)n(C)c(=O)n2C (stereo not drawn)
-2.7%	7%	-3	-11%	COc1ccc(N(CC(=O)NCc2ccc3c(c2)OCO3)C(=O)CCC(=O)Nc2ccccn2)cc1

# Following part
Rango complex inh	miR-21 reporter	GLA inh pH 4.5	Rango release inh	Molecule
-4.1%	3%	-6	12%	CC1CCCCC1NC(=O)COC(=O)/C=C/c1ccc2c(c1)OCO2 (stereo not drawn)
2.6%	-6%	6	-11%	CCOc1ccc2nc(Cl)c(/C=C/C(=O)c3ccco3)cc2c1
1.1%	-7%	4	0%	CCOc1ccc(N=C2NN=C(c3cc(C)n(CC4CCCO4)c3C)CS2)cc1 (stereo not drawn)
?	-23%&-3%	.	-2%	O=C(Nc1nnc(S(=O)(=O)N2CCOCC2)s1)c1ccccc1F
-0.2%	3%	3	6%	O=S(=O)(Nc1cccc2c1CCCC2)c1ccc(Cl)cc1
2.1%	2%	.	-16%	O=C(CCNC(=O)C1CCN(S(=O)(=O)c2ccc(F)cc2)CC1)NCc1cccnc1
4.5%	-9%	-17	5%	CN1CCC2(CC1)N=C(c1ccc(F)cc1)C(=S)N2C(=O)c1ccc(C(C)(C)C)cc1
